# H5N1 CPE: MDCK cell protection from H5N1 avian flu; cytopathic effect, luminescence, 72 h; hits give high values; no value below 0 was filed and about half of the inactive calls have no number; reference of the scale not given here; inhibition, % at 50 µM; 0.07% of 96,000 active; AID 740; in the data active = inhibition above about 25%
# The depositor's hits bear a star; i = inactive. These rows are one share of the data; count on the stated rates, not on these rows.
SMILES,H5N1 CPE
CC(C)(C)OC(=O)NCCc1nnc(SCc2ccc(Cl)cc2)o1,27*
CS(=O)(=O)N1CCN(c2ccc([N+](=O)[O-])c(NCc3ccccc3)c2)CC1,i
O=C(NCCN1CCOCC1)c1ccc(CS(=O)(=O)c2ccc(Cl)cc2)o1,1.1
COc1ccc(CC2C(=O)N(C)C(=O)N(C)C2=O)c(OC)c1,0.2
COc1cc2c(cc1NC(=O)Cn1cnc3c1c(=O)n(C)c(=O)n3C)oc1ccccc12,i
CCOc1ccc(NC(=O)C2CCCCN2S(=O)(=O)c2ccccc2)cc1 (stereo unspecified),2.6
Nc1nc(-c2cccnc2)nn1C(=O)Cc1ccccc1,1.9
CCS(=O)(=O)N1CCC(C(=O)NCc2ccccc2OC)CC1,i
Cc1cc2c(ncn2C)c(NS(=O)(=O)c2cc(Cl)ccc2Cl)c1C,i
CC(=O)Cc1nsc(Nc2ccc3c(c2)OCCO3)n1,1.2
COc1cccc(C(=O)Nc2nc3c(s2)CN(C)CC3)c1,i
Cc1ccc(CNC(=O)CSc2nc3ccsc3c(=O)n2NC(=O)c2ccccc2)cc1,0.6
COc1cc(NC(=O)c2cccs2)c(C(=O)OCC(=O)NCc2ccco2)cc1OC,i
O=c1c2ccccc2nc(N2CCCC2)n1-c1ccccc1,0.4
COc1cccc(N2CCN(C(=O)c3[nH]c(C)c(C(C)=O)c3C)CC2)c1,i
COc1cc(C2C(C(=O)c3ccc(C)o3)=C(O)C(=O)N2CCc2ccccc2)ccc1O (stereo unspecified),i
O=C(c1ccccc1)C1C(=O)c2ccccc2C1=O,i
COc1ccc(CCCc2nnc(SCC(=O)Nc3cc(C)ccc3C)o2)cc1,0.3
Cc1ccc(NC(=O)c2cc3nc(C)cc(C)n3n2)cc1,0.5
COc1ccc(/C=C/C(=O)c2c(O)cc(C)oc2=O)c(OC)c1,i
CCN(C(=O)CN1CCN(c2ccccc2OC)CC1)c1c(N)n(Cc2ccccc2)c(=O)[nH]c1=O,i
COC(=O)c1ccccc1NC1CC(=O)N(c2c(C)cccc2C)C1=O (stereo unspecified),i
CCn1ncc(C2=NOC(C(=O)Nc3cccnc3)C2)c1C (stereo unspecified),i
CC1CCN(C(=O)CSc2nnc(Cc3cccn3C)n2-c2ccc(F)cc2)CC1,2.1
COC(=O)CN1C(=O)C2(C(C#N)=C(N)Oc3ccccc32)C2=C1CC(C)(C)CC2=O (stereo unspecified),i

# Remaining list, next part
SMILES,H5N1 CPE
Clc1ccc(-c2nc(NCCN3CCOCC3)c3ccccc3n2)cc1,i
COCCN1C(=O)c2oc3c(C)cc(C)cc3c(=O)c2C1c1cccc(O)c1 (stereo unspecified),0.2
CC(C)C(=O)Nc1ccc(Sc2ccc(F)cc2)cc1,0.9
COc1ccc(-c2noc(-c3ccccc3C(=O)NCc3ccco3)n2)cc1OC,i
CCN(CCNC(=O)C1CCN(Cc2nc(-c3cccc(Cl)c3)oc2C)CC1)c1ccccc1,i
CCOC(=O)c1cnn(-c2ccccc2)c1-c1ccccc1,0.7
O=C(c1ccccc1)N1CC(COc2ccccc2)OC(c2ccco2)O1 (stereo unspecified),i
Cc1c(NC(=O)/C(C#N)=C/C2CC=CCC2)c(=O)n(-c2ccccc2)n1C (stereo unspecified),i
COc1ccc(-c2n[nH]c3c2C(c2ccc(OC)c(OC)c2)N(c2ccccc2)C3=O)cc1 (stereo unspecified),4.5
CCOc1ccccc1C(=O)OCC(=O)Nc1ncc(C(F)(F)F)cc1Cl,0.5
Cc1noc(C)c1COC(=O)c1ccc2c(c1)S(=O)(=O)c1ccccc1C2=O,0.3
CC(NC(=O)C(Cc1ccccc1)N1C(=O)C2C3CCC(C3)C2C1=O)c1ccccc1 (stereo unspecified),0.2
Cc1ccc(-n2c(C)cc3c2CC(C)(C)CC3=O)cc1C,2.3
COc1ccc(CCN=CC2=C(O)CCCC2=O)cc1OC,0.7
CCc1cc2c(SCC(=O)c3ccc(Cl)s3)ncnc2s1,i
COc1ccc2nc(NC(=O)C3CCCN(S(=O)(=O)c4cccc5nsnc45)C3)sc2c1 (stereo unspecified),0.6
O=C(COC(=O)c1cccs1)NC1CCCCC1,i
O=C(Nc1nncs1)c1cccc(S(=O)(=O)N2CCCC2)c1,1.2
CCOC(=O)N1CCN(C(=O)C2CCC(CNS(=O)(=O)c3ccccc3)CC2)CC1 (stereo unspecified),1.0
Cc1cc(C)c(S(=O)(=O)N(CC(=O)N2CCOCC2)C2CCCCC2)c(C)c1,1.9
COc1ccc(OC)c(/C=N/NC(=O)CC2C(=O)NN=C2C)c1 (stereo unspecified),i
CC(=O)C1=C(c2ccccc2)NC(=O)NC1c1ccccc1OCC#N (stereo unspecified),0.6
COc1cc(S(=O)(=O)N2CCCCCC2)ccc1Cl,2.8
Cc1ccc(-n2c(SCC(=O)Nc3cc(C)on3)nc3c([nH]c4ccccc43)c2=O)cc1,i
CCC(=O)Nc1ccc(NC(=O)CSc2nc3cc4c(cc3cc2C)CCC4)cc1,i

# Next section:
SMILES,H5N1 CPE
Cc1ccc(NC(=O)c2ccc(CNS(=O)(=O)c3cccc(C(F)(F)F)c3)cc2)cc1,i
COc1cc(Br)cc2cc(C(=O)N3CCN(c4ccccn4)CC3)c(=O)oc12,i
CC(=O)N=C1SC2CS(=O)(=O)CC2N1c1c(Cl)cccc1Cl (stereo unspecified),0.5
COc1cc(-c2nnc(SCC(=O)Nc3ccc4c(c3)OCCO4)o2)cc(OC)c1OC,1.7
C=CCn1c(SCC(=O)NCc2cccs2)nnc1C1CCCCC1,0.1
COc1ccc(CC(=O)Nc2cc(=O)n(C)c(=O)n2C)cc1,i
CCC(C)NC(=O)COc1ccc(Br)c(C)c1 (stereo unspecified),i
O=C(CSc1ncn[nH]1)Nc1ccnc2ccccc12,2.2
COC(=O)CSc1ccc2c(N)c(C(=O)OC)sc2c1,i
O=C(c1ccc(N2CCOCC2)nc1)N1CCOCC1,0.7
Cc1ccc(NC(=O)c2c(C(F)(F)F)nn(C)c2SCc2ccc(Cl)cc2)cc1C,2.0
O=C(c1ccc(Cl)s1)N1CCc2ccccc21,1.7
CCOc1ccccc1OC(=O)c1ccco1,0.3
CCOc1nc(N=C(N)N)nc2c(C)cccc12,i
CC(O)(CS(=O)(=O)Cc1ccccc1)C(=O)Nc1cccc(C(F)(F)F)c1 (stereo unspecified),i
O=C1CCCC2=C1C1(CCCC1)N=C(Nc1nc3ccccc3s1)N2,i
CCOC(=O)Cn1c(=O)c2c(nc3n2CCN3Cc2ccccc2)n(C)c1=O,0.5
Cc1ccc(NC(=O)/C(=C\c2cccc(Br)c2)NC(=O)c2ccco2)cc1,i
O=C(CCN1C(=O)C2C3C=CC(C3)C2C1=O)N1CCN(c2cccc(Cl)c2)CC1 (stereo unspecified),1.2
COC(=O)CSc1nnc(Cc2cc(=O)[nH]c(=O)[nH]2)n1-c1cccc(OC)c1,0.3
C=CCn1c(O)c(C=NCCN2CCNCC2)c(=O)[nH]c1=O,i
Cc1cccc(-n2nnc3cnn(C)c3c2=O)c1,0.2
O=C(Nc1ccc2c(c1)OCCO2)c1cccc(S(=O)(=O)N2CCOCC2)c1,2.8
O=C(Cn1c(=O)oc2cc(S(=O)(=O)N3CCc4ccccc43)ccc21)N1CCCCC1,4.5
COC(=O)c1cc(NCc2cccs2)ccc1N1CCOCC1,0.5

# (next part)
SMILES,H5N1 CPE
O=S(=O)(Nc1nc2ccccc2[nH]1)c1ccccc1,i
CCOC(=O)c1sc(NC(=S)NC(=O)c2ccccc2Cl)c(C(=O)OCC)c1C,i
Cc1ccccc1-c1nnc(SCC(=O)Nc2ccc3c(c2)OCCO3)n1N,0.3
COc1ccc(OC)c(N(CC(=O)O)S(=O)(=O)c2ccc(OC)c(OC)c2)c1,i
Cc1cc(NC(=O)CSc2nnc(CNc3ccc(F)cc3)n2C2CCCCC2)no1,27*
O=C(c1cc2ccccc2oc1=O)N1CCC2(CC1)OCCO2,0.9
Cc1noc(NS(=O)(=O)c2ccc(NC(=O)c3ccoc3C)cc2)c1C,1.0
COc1ccc(OC)c(N(CC(=O)Nc2cccnc2)S(=O)(=O)c2ccccc2)c1,i
O=C(NC(=O)c1cccc(F)c1)OC[C@@H]1CCCN2CCCC[C@H]12,0.3
O=C1OCCC1N1C(=O)c2ccccc2S1(=O)=O (stereo unspecified),0.1
Cc1nnc(SCc2c(Cl)cccc2Cl)s1,0.1
COc1ccc(N2C(=O)CSC2c2cccc(F)c2)c(OC)c1 (stereo unspecified),0.2
O=C(COC(=O)c1cn(-c2ccccc2)nc1-c1cccs1)NC1CC1,i
O=C(OCn1ncc(Br)c(Br)c1=O)c1ccccc1Cl,i
CCn1c(SCC(N)=O)nc2c1c(=O)n(C)c(=O)n2C,2.0
O=C(NCCN1C(=O)C2C3C=CC(C3)C2C1=O)Nc1ccc(Br)cc1 (stereo unspecified),1.0
CCC(=O)Nc1c(C#N)c2nc3ccccc3nc2n1-c1ccccc1C,1.8
CC(C)OCCCNC(=O)c1c(N)n(Cc2cccs2)c2nc3ccccc3nc12,1.6
COc1ccc2c(c1)OC13CCCCC1C2C(C(=O)c1ccccc1)C(=O)N3 (stereo unspecified),i
C=CCN(N=Nc1cccc([N+](=O)[O-])c1)c1cccc([N+](=O)[O-])c1,0.5
CC1CCc2nn(CC(=O)NCCN3CCOCC3)cc2C1 (stereo unspecified),i
Cc1ccc(C2NC(=O)c3c(sc(C)c3C)N2)c(O)c1 (stereo unspecified),0.5
C=C(C)C(=O)Nc1ccc(OC(F)(F)C(F)F)c(NC(=O)C(=C)C)c1,i
Cc1cccc(NC(=O)c2cccnc2)c1,i
COc1ccc2[nH]cc(CCN=C3SCC(=O)N3C)c2c1,0.9

# New compounds follow.
SMILES,H5N1 CPE
COc1ccc(C2/C(=C(/O)c3ccccc3)C(=O)C(=O)N2CCO)cc1 (stereo unspecified),i
CC1=CC(=C2C(=O)c3ccccc3C2=O)C=C(C)N1C,0.4
CNS(=O)(=O)c1cccc(C(=O)OCC(=O)NCc2ccccc2)c1,0.6
CCN(CCNC(=O)CS(=O)(=O)Cc1nc(-c2cccc(OC)c2)oc1C)c1ccccc1,0.7
C#CC(C)(C)NC(=O)CSc1nc2c(c(=O)n(C)c(=O)n2C)n1CCCC,1.4
CC(C)N(C(=O)NC(=O)NCC1CCCO1)S(C)(=O)=O (stereo unspecified),i
COc1ccc(OCCCC(=O)Nc2nnc(C3CCCO3)s2)cc1 (stereo unspecified),0.3
O=C(NCCc1c[nH]c2ccccc12)Nc1cccc2ccccc12,0.4
COc1ccc(C(C)=O)c(OC(=O)c2ccco2)c1,i
CN1C(CC(=O)c2ccccc2)CCCC1CC(O)c1ccccc1 (stereo unspecified),i
COc1cccc(C(c2nnnn2Cc2ccccc2)N2CCN(C(=O)c3ccco3)CC2)c1OC (stereo unspecified),1.2
Cc1nc(CCN2C(=O)c3ccccc3C2=O)n[nH]1,i
Cc1ccnc(NC(=O)CN(C)S(=O)(=O)c2cccc3nsnc23)c1,1.6
COc1ccc(-c2cnn(-c3ccccc3)c2N)cc1OC,0.6
CCOP(=O)(CN(CC)CCNP(=O)(OCC)OCC)OCC,i
O=C(NCCC(=O)N1CCNC1=O)OCc1ccccc1,1.3
CCCCn1nnnc1NCc1cc(OC)c(OC)cc1OC,0.2
CCn1ncc(/C=N/NS(=O)(=O)c2ccc(Cl)cc2)c1C,0.6
COc1cccc(OCc2nc3ccccc3c(=O)n2N)c1,i
Cc1ccccc1C(=O)c1ccc2c(c1)n(C)c(=O)n2C,1.2
O=C(c1cc(-c2ccccc2)nc2ccccc12)N1CCC2(CC1)OCCO2,i
COc1cccc(C(=O)Nc2ccc(NC(C)=O)cc2)c1,i
CC(=O)Cc1nsc(NC(=O)c2c(-c3ccccc3Cl)noc2C)n1,i
O=C(c1ccccc1NS(=O)(=O)c1cccs1)N1CCCC1,i
CCCNC(=O)C1CCN(c2nc(C)cc(C)n2)CC1,i

# (cont.)
SMILES,H5N1 CPE
Cc1ccccc1NC(=O)COC(=O)CN1C(=O)NC(C)(C)C1=O,i
O=C(CCN1C(=O)COc2ccccc21)NCCN1CCc2ccccc2C1,0.6
NC(=O)c1cc(Cc2ccccc2)sc1NC(=O)c1ccco1,i
Cc1ccc(-c2nnc(SCC#CCOC(=O)c3cccs3)o2)cc1,i
COc1ccc(-n2ncc(N(C)n3cccc3)c(Cl)c2=O)cc1,0.7
O=C(c1oc(=O)c2ccccc2c1-c1ccccc1)N1CCN(C2CCCCC2)CC1,1.1
COc1cc(NC(=O)c2ccco2)ccc1NC(=O)C(C)C,0.1
CCOC(=O)N1CCC2(CC1)C(C#N)=C(N)Oc1n[nH]c(CSc3ccc(C)cc3)c12,i

# Grouped by structure, the entries above containing an aryl thioether with sulfur outside any ring.
SMILES,H5N1 CPE
CC(C)(C)OC(=O)NCCc1nnc(SCc2ccc(Cl)cc2)o1,27*
Cc1ccc(CNC(=O)CSc2nc3ccsc3c(=O)n2NC(=O)c2ccccc2)cc1,0.6
COc1ccc(CCCc2nnc(SCC(=O)Nc3cc(C)ccc3C)o2)cc1,0.3
CC1CCN(C(=O)CSc2nnc(Cc3cccn3C)n2-c2ccc(F)cc2)CC1,2.1
CC(C)C(=O)Nc1ccc(Sc2ccc(F)cc2)cc1,0.9
CCc1cc2c(SCC(=O)c3ccc(Cl)s3)ncnc2s1,i
Cc1ccc(-n2c(SCC(=O)Nc3cc(C)on3)nc3c([nH]c4ccccc43)c2=O)cc1,i
CCC(=O)Nc1ccc(NC(=O)CSc2nc3cc4c(cc3cc2C)CCC4)cc1,i
COc1cc(-c2nnc(SCC(=O)Nc3ccc4c(c3)OCCO4)o2)cc(OC)c1OC,1.7
C=CCn1c(SCC(=O)NCc2cccs2)nnc1C1CCCCC1,0.1
O=C(CSc1ncn[nH]1)Nc1ccnc2ccccc12,2.2
COC(=O)CSc1ccc2c(N)c(C(=O)OC)sc2c1,i
Cc1ccc(NC(=O)c2c(C(F)(F)F)nn(C)c2SCc2ccc(Cl)cc2)cc1C,2.0
COC(=O)CSc1nnc(Cc2cc(=O)[nH]c(=O)[nH]2)n1-c1cccc(OC)c1,0.3
Cc1ccccc1-c1nnc(SCC(=O)Nc2ccc3c(c2)OCCO3)n1N,0.3
Cc1cc(NC(=O)CSc2nnc(CNc3ccc(F)cc3)n2C2CCCCC2)no1,27*
Cc1nnc(SCc2c(Cl)cccc2Cl)s1,0.1
CCn1c(SCC(N)=O)nc2c1c(=O)n(C)c(=O)n2C,2.0
C#CC(C)(C)NC(=O)CSc1nc2c(c(=O)n(C)c(=O)n2C)n1CCCC,1.4
Cc1ccc(-c2nnc(SCC#CCOC(=O)c3cccs3)o2)cc1,i
CCOC(=O)N1CCC2(CC1)C(C#N)=C(N)Oc1n[nH]c(CSc3ccc(C)cc3)c12,i
